HNF4A DNA FP: change in binding of human HNF4 alpha to DNA; P41235; HNF4a-FITC DNA binding, fluorescence polarization, 1 h; activity change, % at 10 µM; 0.3% of 360,000 active; AID 1224865; in the data active = activity change above about 30%, passing the limit was not always enough;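 note: controls were the assay level and a saturating level of protein; the project sought stronger binding though the title names inhibitors; some compounds called inactive have numbers as strong as hits; positive values seem to mean higher polarization but the record does not say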
Target sequence (P41235 whole entry, looked up): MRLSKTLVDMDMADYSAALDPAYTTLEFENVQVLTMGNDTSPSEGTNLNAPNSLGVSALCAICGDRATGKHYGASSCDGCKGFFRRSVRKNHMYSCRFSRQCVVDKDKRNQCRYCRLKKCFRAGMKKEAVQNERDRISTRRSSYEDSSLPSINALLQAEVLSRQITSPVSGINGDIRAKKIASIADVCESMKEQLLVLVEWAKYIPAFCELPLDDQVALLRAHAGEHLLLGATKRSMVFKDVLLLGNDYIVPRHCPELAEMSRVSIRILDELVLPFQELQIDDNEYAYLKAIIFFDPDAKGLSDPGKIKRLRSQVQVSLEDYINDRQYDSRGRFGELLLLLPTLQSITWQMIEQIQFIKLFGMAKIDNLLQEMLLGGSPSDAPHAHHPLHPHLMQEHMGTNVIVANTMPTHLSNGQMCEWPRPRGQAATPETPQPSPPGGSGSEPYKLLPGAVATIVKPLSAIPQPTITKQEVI
B2AR ag: agonists of human beta-2 adrenergic receptor inducing internalization | P07550 | Am2.2-beta2AR cells, FAP receptor internalization, flow cytometry; reference of the scale not given here | response, % (test concentration not listed) | 0.43% of 340,000 active;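 active = response above a set limit, near 3 SD of response in nonfluorescent compounds, cut at about 42% in these data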;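 note: stock transfer was 100 nL into about 11 µL; a reference agonist was the positive control; negative values mostly stem from fluorescent compounds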
Target sequence (P07550 whole entry, looked up): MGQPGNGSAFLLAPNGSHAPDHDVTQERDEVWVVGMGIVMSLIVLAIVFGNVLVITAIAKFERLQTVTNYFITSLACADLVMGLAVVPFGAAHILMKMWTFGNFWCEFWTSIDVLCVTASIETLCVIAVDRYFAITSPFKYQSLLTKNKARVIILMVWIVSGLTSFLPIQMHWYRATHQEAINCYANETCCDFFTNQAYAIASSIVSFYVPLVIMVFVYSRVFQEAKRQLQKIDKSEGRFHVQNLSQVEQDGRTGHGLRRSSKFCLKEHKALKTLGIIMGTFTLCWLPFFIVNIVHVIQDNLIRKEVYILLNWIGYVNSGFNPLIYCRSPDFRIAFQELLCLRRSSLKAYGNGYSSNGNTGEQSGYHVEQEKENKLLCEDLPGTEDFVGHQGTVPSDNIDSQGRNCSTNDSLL
ALR H2O2 inh: blocks human ALR sulfhydryl oxidase activity; inhibition, % (test concentration not listed); 3.8% of 290,000 active; purified ALR, DTT oxidation, H2O2 HRP-luminol luminescence;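 active = mean and each replicate at 75% or more; inconclusive = only one of the two met; inactive = neither met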;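 note: stock transfer was 7.5 nL into about 7.5 µL; 0% = neutral wells and 100% = wells with inactivated enzyme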
LANA-H2B inh: blocks KSHV LANA binding to histone H2A/H2B; Q9QR71; cell-free LANA-H2A/H2B peptide, fluorescence polarization; inhibition, % (concentration not given with the values); 0.6% of 320,000 active; in the data active = inhibition mostly above about 10%, no sharp cut-off; inactive = mostly below about 6.7%;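 note: stock transfer was 7.5 nL into about 10 µL; 0% = median of vehicle wells and 100% = median of positive control wells; one replicate is shown; the record names a cut of 25% in any replicate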
Calb FLC: affects C. albicans growth with fluconazole. growth inhibition, % (test concentration not listed). AID 1979. 0.57% of 300,000 active. C. albicans CaCi-2 (fluconazole-resistant clinical isolate) + fluconazole, Alamar Blue growth, 48 h;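 active = most replicates above 75%; inconclusive = exactly half above 75%; inactive = most below 75%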;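 note: all wells also contain fluconazole at 8 µg/ml as a sub-toxic cotreatment; 0% = median of DMSO wells and 100% = median of geldanamycin control wells; wells of about 8 µL received 7.5 nL stock; the first replicate is given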
Vif A3G: HIV-1 Vif–A3G interaction blockers – biochemical, TR-FRET, GST-Vif 1-94, biotin-A3G peptide, dose response retest, primary screen (AID 1117319); TR-FRET GST-Vif / biotin-A3G peptide binding; higher % means a stronger effect; test concentration not given here; strong numbers were not always called active; inhibition, %, or IC50 in µM where a hit was titrated; 0.57% of 260,000 active;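 active = above the screen mean plus three standard deviations and confirmed in dose response; inconclusive = results disagree or hit not tested in dose response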;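 note: Vif residues 1-94 fused to GST binding biotinylated APOBEC3G peptide 110-148; 0% = full assay without inhibitor and 100% = GST in place of GST-Vif; retest series ran down from 100 µM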
RanGTP-Impb inh: disruptors of Ran-importin-beta complex formation – biochemical, FRET, CFP-Ran, YFP-importin-beta, homogeneous, primary screen; AID 2216; inhibition, % (concentration not given with the values); 1.1% of 300,000 active; cell-free CFP-Ran/YFP-importin-beta FRET ratio;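 active = most replicates above 15%; inconclusive = exactly half above 15%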;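 note: 0% = DMSO wells and 100% = Ran loaded with GDP instead of GTP; wells of about 40 µL received 100 nL stock; the first replicate is given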
* = called active by the depositor; ? = inconclusive; nt = no result given; & = joins results of further samples.

Second line of a record – HNF4A DNA FP, B2AR ag, ALR H2O2 inh, LANA-H2B inh, Calb FLC, Vif A3G, RanGTP-Impb inh
- c1nc(N2CCCC2)c2[nH]cnc2n1
 : -0.7, -3, -8, 2.2, 0, -5%, 3.3
- COc1ccc(CNC(C)(C)C)cc1Cl
 : -3.2, -4, -3, 3.3, -1, 5%, -2.4
- CN1CCc2c(OCC(=O)N3CCC(Cc4ccccc4)CC3)cccc2C1=O
 : 0.5, 2, 2, 1.8, -1, -5%, 2.8
- Cc1ccc(S(=O)(=O)CCC(=O)N(Cc2nnc(-c3ccc(Cl)cc3)o2)C2CC2)cc1
 : 6.6, -9, -4, -3.3, nt, -7%, nt
- NC(=O)c1oc2ccccc2c1NC(=O)c1ccco1
 : -2.8, -12, 6, -0.7, nt, 6%, nt
- COc1ccc(C(=O)CC(=O)C(=O)Nc2ccc([N+](=O)[O-])cc2C)cc1
 : -3.6, -2, -3, -1.9, 5, 1%, -0.8
- COc1ccc(-c2c(C#N)c(N)nc(Sc3ccc(Cl)cc3)c2C#N)cc1
 : 1.8, 3, 6, -1.8, -17, nt, -11
- COc1cccc(NC(=O)C(=O)NCCC2CCCCN2S(=O)(=O)c2cccs2)c1 (centres undefined)
 : -3.6, -12, nt, nt, -1, -7%, ?
- COc1ccccc1NC(=O)CCNS(=O)(=O)c1ccc2c(c1)CCN2C(C)=O
 : -2.2, -8, 0, 3.6, 7, nt, 4.5
- Cc1c(Cl)cccc1NC(=O)NNC(=O)CCc1ccccc1
 : -1.5, -2, -1, 21, -1, 2%, -1.3
- Cn1c(=O)[nH]c(=O)c2c1nc(CN1CCN(Cc3ccccc3)CC1)n2CC(N)=O
 : 3.4, -3, -24, 3.5, -10, -6%, 0.7
- Cc1c(Cc2ccccc2)c(=O)[nH]c(=O)n1C
 : 4.0, 3, nt, nt, nt, -7%, nt
- O=C(Cc1cccs1)NNC(=S)NC(=O)c1ccco1
 : -0.8, -1, 42, 3.5, ?, 11%, 6.5
- CC(OC(=O)c1ccc(S(=O)(=O)NCc2ccco2)cc1)C(=O)Nc1ncc(Cl)cc1Cl (centres undefined)
 : 9.6, -4, 4, 1.4, -6, 21%, -5.0
- COc1ccc(C(C(=O)NC(C)(C)C)N(C(=O)CNC(=O)c2cccs2)c2ccc(NC(C)=O)cc2)cc1OC (centres undefined)
 : 2.6, -2, -3, -1.7, 29, -3%, -3.3
- CCO[C@@H]1OC(C(=O)NC2CC2)=C[C@H](c2csc3ccccc23)[C@H]1CCCO
 : 2.1, -10, -18, 4.7, 11, 3%, 1.8
- Cc1occc1C(=O)N1CCN(S(=O)(=O)c2ccccc2)CC1
 : -6.8, -1, 3, 3.0, -10, nt, 3.9
- O=C(NCCCn1ccnc1)c1ccccc1Cl
 : -0.9, 13, 0, 0.6, -16, 5%, -1.1
- COc1cc(C)ccc1OCCOc1ccccc1Cl
 : -1.4, 0, 1, 1.3, 0, -2%, 4.1
- O=C(Cn1c(O)c(N=NC(=O)c2ccncc2)c2ccccc21)Nc1ccccc1
 : nt, nt, -1, -3.7, -1, 6%, -1.8

New compounds follow:
Second line of a record – HNF4A DNA FP, B2AR ag, ALR H2O2 inh, LANA-H2B inh, Calb FLC, Vif A3G, RanGTP-Impb inh
- COc1ccccc1-c1nnc2sc(COc3ccc(F)cc3)nn12
 : -2.2, 3, 4, -5.3, 25, -4%, -1.6
- COc1ccccc1N/C=C/C(=C(C#N)C#N)N(C)C
 : 0.5, 1, 21, -0.1, -8, nt, 2.2
- O=C(NC1c2ccccc2-c2ccccc21)c1ccco1
 : -1.8, -1, -3, -8.2, nt, -8%, 1.5
- Cc1nn(C(C)C(=O)NCCCN2CCCCCC2)c(=O)c2c1sc1ccccc12 (centres undefined)
 : 6.8, 1, -8, -1.6, -2, nt, 0.4
- Cc1oc(-c2ccc(Cl)cc2)nc1CS(=O)CC(=O)NC1CCCCCC1 (centres undefined)
 : 2.3, -11, -8, -2.0, -1, 5%, 5.2
- COc1ccc(Oc2c(O)c3ccccc3n(C)c2=O)cc1
 : 2.3, 1, 3, -1.9, 7, 24%, -3.7
- CCC(=O)N/N=C(\C)CC(=O)Nc1cccc([N+](=O)[O-])c1
 : 1.9, 2, 32, -1.4, -2, 3%, -0.9
- COc1ccccc1CNS(=O)(=O)N(C)C
 : -1.5, 0, -1, -4.0, -1, 15%, -0.4
- CC(=O)NNC(=O)CCn1nnc2ccccc21
 : -1.7, -2, -11, -0.6, -1, 13%, -2.1
- CC(C)C(=O)Nc1ccc2c(c1)nc(CCN1CCN(C)CC1)n2C
 : 3.2, -16, -36, -0.3, -2, 16%, 6.2
- Cc1cc(N)n2nc(-c3ccccc3)cc2n1
 : -0.6, -5, 22, -1.6, 10, nt, -1.1
- O=C(NCC1CCCO1)C(c1ccc(F)cc1)N(Cc1ccc2c(c1)OCO2)C(=O)c1ccc(CN2CCOCC2)o1 (centres undefined)
 : 1.6, -4, -2, -2.2, -7, 5%, 1.8
- CNCC(C)COc1ccccc1OCc1ccccc1 (centres undefined)
 : -2.7, 2, -33, -0.6, -27, 20%, -1.9
- CCS(=O)(=O)c1ccc2c(c1)N(S(C)(=O)=O)CC(C(=O)NCCOC)O2 (centres undefined)
 : 1.0, 11, -3, -0.9, -10, 1%, -1.6
- CCOc1ccccc1CNC(=O)c1cc2oc3ccccc3c2n1C
 : -1.1, -7, 0, 4.7, -9, -10%, -2.9
- CCOCCc1nnc(NC(=O)c2cccs2)s1
 : -2.3, -15, 1, -1.9, -3, 1%, -1.0
- COc1ccc(NC(=O)CCC(=O)c2cc(C)sc2C)cc1
 : -0.1, 5, nt, nt, nt, -12%, nt
- CCN(Cc1ccccc1)C(=O)c1nn(-c2ccc(OC)cc2)c(=O)c2c1c1ccccc1n2C
 : -2.1, 6, -14, 3.2, -5, 15%, -0.8
- Cc1ccc(N2C(=O)[C@@H]3[C@H](C2=O)C2c4ccccc4C=NN2[C@@H]3C(=O)c2ccc(Cl)cc2)cc1 (some centres undefined)
 : 1.7, -7, -6, -2.4, 7, -18%, 3.3
- COCCN(C(=O)c1csnn1)C(C(=O)NC1CCCC1)c1ccc(C)cc1 (centres undefined)
 : -3.4, -2, -10, -2.1, -7, -4%, -0.8

Later entries
Second line of a record – HNF4A DNA FP, B2AR ag, ALR H2O2 inh, LANA-H2B inh, Calb FLC, Vif A3G, RanGTP-Impb inh
- CSC(=O)NC(=O)NC(=O)c1ccc([N+](=O)[O-])cc1
 : 4.5, 2, -4, -0.5, nt, -6%, 0.0
- N=c1c2c3c(sc2ncn1N)CCCC3
 : -2.0, -9, -10, 0.8, -19, nt, 5.7
- CNC(=O)c1c[nH]n2c(=O)c(Cc3ccccc3F)c(C)nc12
 : 0.8, 5, -3, -4.1, -6, 1%, 3.6
- Cc1cc(Nc2cccc(Cl)c2)c2ccccc2n1
 : 2.6, 0, -3, -5.1, 4, nt, 0.1
- Cc1cc(NC(=O)CSC2=NS(=O)(=O)c3cc(Cl)ccc3N2)no1
 : -4.2, -5, -1, 1.2, -9, 2%, -4.2
- COc1ccc(OC)c(NC(=O)C23CCC(C)(C(=O)O2)C3(C)C)c1 (centres undefined)
 : 3.6, 1, -3, -1.2, -10, -3%, -0.4
- Cc1ccc(C(=O)/C=C/c2cn(CN3CCN(C)CC3)c3ccccc23)cc1
 : 4.6, 10, -1, -10, 58, 1%, 72*
- COc1cccc(CNC(=O)CCCCCn2c(=S)[nH]c3ccc(N4CCOCC4)cc3c2=O)c1
 : nt, nt, nt, nt, -10, -13%, 5.4
- OC1(c2cccc(C(F)(F)F)c2)CCN(Cc2nnnn2CCc2ccccc2)CC1
 : -0.8, 13, -2, -5.0, -9, nt, -0.5
- c1ccc(CN2CCC(Nc3nc(-c4cccnc4)nc4ccccc34)CC2)cc1
 : 5.0, 24, -2, -4.8, -3, -1%, 3.4
- CCCCCCCN(C(=O)CCl)c1cccc(C)c1
 : 2.9, 20, 47, 1.4, -13, nt, -0.6
- COc1cccc(C(=O)N2CCC(n3nccc3NC(=O)C(OC)c3ccccc3)CC2)c1 (centres undefined)
 : -1.9, 1, 2, -73, 2, 2%, -0.6
- CCOc1cc(N2CCOCC2)c(OCC)cc1NC(C)C(=O)N1CCN(CC)CC1 (centres undefined)
 : 3.6, -1, nt, nt, -2, 24µM*, -1.5
- CCOc1cc(N2CCOCC2)c(OCC)cc1NC(=O)Cc1cccc2ccccc12
 : -2.7, 5, -23, 2.6, 27, 0%, 1.2
- CC(=O)NC(=O)NC1OC(=O)C(Cl)=C1Cl (centres undefined)
 : 0.5, -2, ?, 0.4, 9, 1%, 0.9
- Cc1cc(C)c(NC(=O)Cn2c([N+](=O)[O-])cnc2C)c(C)c1
 : -2.1, 11, -4, 3.3, 6, nt, 2.8
- Cc1ccc(C(=O)Nc2ccccc2C(=O)N2CCCCCC2)cc1
 : -3.5, -6, 0, -3.3, 6, -2%, 6.0
- O=C(N/N=C/c1ccccc1C(F)(F)F)c1ccc2nc[nH]c2c1
 : -0.3, 6, 24, 0.3, 26, 4%, 7.1
- COCCN(C(=S)Nc1ccc(C)cc1C)C(C)c1ccco1 (centres undefined)
 : 0.3, -7, nt, -1.7, 0, nt, 1.9
- Cc1cc(C)c(N2C(=NC(=O)CCCC(=O)O)SC3CS(=O)(=O)CC32)c(C)c1 (centres undefined)
 : 2.4, 2, 2, 0.3, -4, ?, 1.5

Going on with the list:
Second line of a record – HNF4A DNA FP, B2AR ag, ALR H2O2 inh, LANA-H2B inh, Calb FLC, Vif A3G, RanGTP-Impb inh
- CCc1nc2ccccc2n1CCc1ccccc1
 : 0.1, -4, -1, 6.4, 22, nt, -4.4
- CCOc1ccccc1OCC(=O)OCc1csc(CC(=O)Nc2ccccc2C)n1
 : 2.1, -7, -2, 2.2, 3, -4%, 3.3
- c1ccc(CCC2Cc3ccccc3N2)cc1 (centres undefined)
 : 3.8, -1, 61, -0.5, nt, nt, nt
- COC(=O)Cn1c(C)c(C(C)=O)c(C(C)=O)c1C
 : -2.2, 6, -1, -4.0, 0, -3%, -1.3
- Cc1ccc2c(Cl)cc(Cl)c(OCC(=O)Nc3cccc(S(N)(=O)=O)c3)c2n1
 : 2.0, -9, -1, 1.8, 10, -2%, 2.9
- CS(=O)(=O)N(CC(=O)N1CCCC1)c1ccc(Cl)cc1Cl
 : 0.1, 1, 1, -2.4, -6, nt, 7.0
- CC(Sc1ccc2ccccc2n1)C(=O)O (centres undefined)
 : 3.9, 21, nt, nt, -4&-1, -38%&-62%, ?
- O=C1CC2(CCCCCC2)Oc2ccccc21
 : 0.3, -1, nt, 8.1, -16, nt, 0.3
- O=C(CN1C(=O)C2C3C=CC(C3)C2C1=O)NCCc1ccccc1 (centres undefined)
 : -1.3, -3, nt, -1.4, -4, -9%, ?
- O=C(C1CCCN1C(=O)c1cccs1)N1CCc2ccccc21 (centres undefined)
 : 2.1, -6, -28, -1.1, 5, -3%, 0.5
- COc1ccc(NC(=O)c2ccc3ccccc3c2)cc1
 : -0.3, 3, -7, -0.6, 2, -5%, 1.8
- CCN(C(=S)Nc1ccc(C(C)=O)cc1)C1CCCCC1
 : 1.3, 4, -8, -0.1, ?, -5%, -3.9

Screening results: PubChem BioAssay, several laboratories

No enrichment for hits; about 6.3% have a hit in one of these screens.
